Rce1 inh: blocks yeast Ras-converting enzyme. Q03530. yeast membranes, quenched prenylated peptide cleavage fluorescence. calls only. 0.27% of 290,000 active. AID 2563;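 active means fall in fluorescence gain of 50% or more versus controls, with final raw signal at or below 3038400; inconclusive means same 50% fall but final raw signal above 3038400; inactive means fall in fluorescence gain under 50%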;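 further: plate controls were neutral control wells for no effect and wells lacking membranes for full effect; tested at 10 µM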
Yeast UUG start: alters start codon recognition fidelity in yeast; S. cerevisiae UUG-firefly luciferase reporter, luminescence/redox ratio; activity score, % at 18.7 µM; 0.13% of 350,000 active; AID 602363;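 active means replicate mean at a twofold rise or more, about +100% in these data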;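 further: firefly luciferase made from a UUG start codon reports start codon fidelity; reporter light over untreated wells divided by growth signal over untreated wells; some hits fall short of that in this replicate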
CSC inhib: cancer stem cell inhibition; cancer stem cell-like cells viability, luminescence; inhibition, % at 7.5 µM; 1.1% of 300,000 active; AID 2717;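 active means mean at 75% or more and at least half the replicates too; inconclusive means mean and replicates disagree; tested in HMLE shEcad cells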;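 further: 0% = median of negative and 100% = median of positive control wells; the first replicate is given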
PABP FP inh: blocks human PABP binding to poly(A) RNA. P11940. fluorescence polarization. inhibition, % at 35 µM. 1% of 290,000 active;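 active means 50% or more with normal probe brightness, or confirmed in later tests; inconclusive means above 50% with abnormal brightness, or retests that disagree; inactive means below 50% or failed in later tests; about a fifth of its hits are not listed in these tables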;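 further: calls also rest on retests at 20 µM and on dose response follow-up; controls were probe without protein and protein plus probe with vehicle; some compounds called inactive have numbers as strong as hits; many hits fall short of the cut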
Target sequence (P11940 whole entry, looked up): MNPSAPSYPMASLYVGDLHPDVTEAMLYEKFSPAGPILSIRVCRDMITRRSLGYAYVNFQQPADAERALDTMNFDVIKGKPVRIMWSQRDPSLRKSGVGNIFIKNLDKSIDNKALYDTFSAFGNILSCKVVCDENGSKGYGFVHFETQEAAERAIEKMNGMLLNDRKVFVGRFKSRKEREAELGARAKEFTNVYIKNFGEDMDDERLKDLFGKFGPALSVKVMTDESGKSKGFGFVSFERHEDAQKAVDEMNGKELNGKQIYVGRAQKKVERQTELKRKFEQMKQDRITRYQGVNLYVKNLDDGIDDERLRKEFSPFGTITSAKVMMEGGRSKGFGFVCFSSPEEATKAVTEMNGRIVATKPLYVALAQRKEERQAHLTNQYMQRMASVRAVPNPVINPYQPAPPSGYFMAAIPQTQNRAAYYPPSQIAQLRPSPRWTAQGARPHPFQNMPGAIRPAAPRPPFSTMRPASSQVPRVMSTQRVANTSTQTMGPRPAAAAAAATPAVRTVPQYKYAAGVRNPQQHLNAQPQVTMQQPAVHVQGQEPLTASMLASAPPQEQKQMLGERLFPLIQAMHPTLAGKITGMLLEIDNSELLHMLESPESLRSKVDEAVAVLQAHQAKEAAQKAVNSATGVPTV
eIF4H FP inh: inhibitors of RNA binding by human eIF4H. inhibition, % at 35 µM. eIF4H fluorescence polarization binding assay. Q15056. 0.94% of 290,000 active. AID 2012;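 active means 50% or more with normal probe brightness, or confirmed in later tests; inconclusive means above 50% with abnormal brightness, or retests that disagree; inactive means below 50% or failed in later tests; about a fifth of its hits are not listed in these tables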;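 further: calls also rest on retests at 20 µM and on dose response follow-up; 0% = protein and probe with vehicle and 100% = probe without protein; strong numbers were not always called active; many hits fall short of the cut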
MT1-MMP act inh: inhibitors of human MT1-MMP activation | HT1080 RFP-PRO-GFP cells, GFP/RFP ratio fluorescence, overnight; percent of plate control window, DMSO zero | 0.061% of 360,000 active | P50281 | GFP/RFP ratio change, % at 20 µM;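 active means GFP/RFP ratio change of at least 30% with cell ATP level not reduced by more than half and red fluorescence within 50% of control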; further: strong numbers were not always called active
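Compound: 20 µM single dose, 1% DMSO / System: HT1080 RFP-PRO-GFP cells / Controls: DMSO and RFP-L50D-GFP cell wells / Read-out basis: GFP/RFP fluorescence ratio / Schedule: overnight compound exposure at 37 °C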
HIV Env fusion: inhibitors of HIV Env-mediated cell fusion; HeLa-JRFL Env/CEM21 cell fusion, luciferase; inhibition, % at 12.3 µM; 1.1% of 360,000 active;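 active means mean replicate inhibition score of at least 50 and every replicate individually at or above 50; inconclusive means only one of the two criteria met; inactive means mean below 50 and not all replicates reaching 50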;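 further: 0% = plate neutral controls and 100% = maraviroc near 300 nM; one replicate is shown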
eIF4H FP inh retest: also measured in eIF4H FP inh; calls as there; inhibition, %; compound at 20 µM; confirmation average;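 mean of two retest wells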
PABP FP inh retest: recorded beside PABP FP inh, whose call it bears; inhibition, %; compound at 20 µM; confirmation repeats;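 mean of two retest wells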
MT1-MMP act inh RFP: recorded beside MT1-MMP act inh, whose call it bears; RFP signal change, %; measured here: RFP expression control read;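 0 = vehicle wells; hits needed this value within 50% of zero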
* = called active by the depositor; i = inactive; u = inconclusive; x = not tested or not shown. Not a hit list (roughly 3% active in at least one column).

SMILES	Rce1 inh	Yeast UUG start	CSC inhib	PABP FP inh	eIF4H FP inh	MT1-MMP act inh	MT1-MMP act inh RFP	HIV Env fusion	others
CC(C)c1cc(C(F)(F)F)n2nc(C(=O)O)cc2n1	i	6	-9	13	3	0	3	-39
COc1ccc(CN2CCNC(=O)C2CC(=O)N2CCCN(C(C)=O)CC2)c(OC)c1 (configuration not stated)	i	-7	-13	-2	1	-1	3	4
CCN(CC)c1ccc(NC(=O)Cn2ncc3c(C)n(Cc4ccccc4F)c(C)c3c2=O)c(C)c1	i	x	15	-13	-11	6	3	x
CN(CC(=O)NC1CCCCCC1)S(=O)(=O)c1ccc2c(c1)n(C)c(=O)c(=O)n2C	i	-18	-6	-1	1	0	-2	16
CC(Sc1sc(=S)sc1SC(C)C(=O)O)C(=O)O (configuration not stated)	i	-13	-7	7	1	9	1	-7
CN(C)C(CNC(=O)c1ccc2c(c1)S(=O)(=O)c1ccccc1C2=O)c1ccco1 (configuration not stated)	i	-8	0	-3	3	0	4	-10
Cc1cccc(NC(=O)CCS(=O)(=O)c2ccc(Cl)cc2)c1	i	-12	-4	-12	0	2	1	-31
Cc1cc2cc3c(cc2nc1SCc1ccc(C(=O)O)cc1)OCCO3	i	x	-19	-14	-1	-3	0	17
C/C(=N\OCC(=O)Nn1c(C)nc2ccccc2c1=O)c1ccccc1	i	-9	-5	-9	-1	1	12	11
CCN(CC)CCCN1C(=O)C(=O)/C(=C(/O)c2ccc(C)cc2)C1c1ccccn1 (configuration not stated)	i	-12	2	56*	3.1*	-7	1	-4	eIF4H FP inh retest=100*;PABP FP inh retest=99*
CCc1ccccc1NC(=O)Cn1cccc1C1=NC(c2ccccc2)CO1 (configuration not stated)	i	3	10	-13	0	-4	-2	25
Cc1ccc(C(=O)Nc2ccc(F)cc2F)o1	i	-20	6	-8	-1	0	0	-76
Cc1ccc(NC(=O)c2ccc3ncsc3c2)cc1S(=O)(=O)N(C)C	i	x	-18	10	2	x	x	-124
COc1cc(C(=O)O/N=C(\N)c2ccc([N+](=O)[O-])cc2)cc(OC)c1OC	i	-15	-3	12	-13	4	-1	-3
Cc1nc(-c2ccc(C(=O)Nc3cccc(F)c3)cc2)cs1	x	-15	34	2	2	-4	-28	-155
O=c1ccc2cc3c([nH]c4ccc(Br)cc43)oc-2c1O	i	-15	16	43	78	-55	1	-31	eIF4H FP inh retest=-5;PABP FP inh retest=1
CC1(C(=O)OCC(=O)NC(=O)NCc2ccccc2)CC1(Cl)Cl (configuration not stated)	i	x	-8	21	-1	2	-1	10
COCCNC(=O)CSc1nc(N)c(NC(=O)c2ccco2)c(=O)[nH]1	x	9	x	x	x	-4	4	1
Cc1ccc(S(=O)(=O)N2CCC(C(=O)N3CCC[C@H]3C(=O)NCc3ccco3)CC2)cc1	i	-1	x	20	30	0	2	3
CCCC(=O)Nc1nnc(Sc2ccc(N(C)C)cc2)s1	i	-12	-3	5	-4	1	-1	x
O=C(CSc1nccc(=O)[nH]1)Nc1ccc(Br)c(Cl)c1	i	-9	-1	4	-2	1	1	x
O=C1C(=O)N(Cc2cccnc2)C(c2cccc(O)c2)/C1=C(\O)c1ccc2c(c1)OCCO2 (configuration not stated)	i	-15	-5	7	-17	0	2	9
Cc1cccc(C)c1OCC(O)CN1CCN(c2ccccc2)CC1 (configuration not stated)	i	-11	10	-6	-10	-4	-1	3
NC(=O)/C=C\C(=O)Nc1cccc(C(F)(F)F)c1	i	-25	25	6	2	-1	5	x
Clc1ccc(OCc2nn3c(C4CCCCC4)nnc3s2)cc1	i	-3	-8	-2	-15	0	4	x

The last 7 records of the part above are carried over, then new ones follow.
SMILES	Rce1 inh	Yeast UUG start	CSC inhib	PABP FP inh	eIF4H FP inh	MT1-MMP act inh	MT1-MMP act inh RFP	HIV Env fusion	others
Cc1ccc(S(=O)(=O)N2CCC(C(=O)N3CCC[C@H]3C(=O)NCc3ccco3)CC2)cc1	i	-1	x	20	30	0	2	3
CCCC(=O)Nc1nnc(Sc2ccc(N(C)C)cc2)s1	i	-12	-3	5	-4	1	-1	x
O=C(CSc1nccc(=O)[nH]1)Nc1ccc(Br)c(Cl)c1	i	-9	-1	4	-2	1	1	x
O=C1C(=O)N(Cc2cccnc2)C(c2cccc(O)c2)/C1=C(\O)c1ccc2c(c1)OCCO2 (configuration not stated)	i	-15	-5	7	-17	0	2	9
Cc1cccc(C)c1OCC(O)CN1CCN(c2ccccc2)CC1 (configuration not stated)	i	-11	10	-6	-10	-4	-1	3
NC(=O)/C=C\C(=O)Nc1cccc(C(F)(F)F)c1	i	-25	25	6	2	-1	5	x
Clc1ccc(OCc2nn3c(C4CCCCC4)nnc3s2)cc1	i	-3	-8	-2	-15	0	4	x
COc1ccc(S(=O)(=O)N(CCc2ccccc2)CC(=O)NCCCO)cc1	i	x	-9	5	2	-1	2	x
Cc1ccc(C(C(=O)NC(C)(C)C)N(Cc2ccccc2)C(=O)c2snc(C(N)=O)c2N)o1 (configuration not stated)	i	x	5	-1	0	0	0	14
CCOc1ccc(-c2nc(C#N)c(NCc3ccc4c(c3)OCO4)o2)cc1	i	-18	11	-18	-4	4	-2	-91
O=C(OCC(=O)N1CCN(c2ccccc2)CC1)c1cc(Cl)ccc1[N+](=O)[O-]	i	-3	-10	7	5	-8	1	-6
O=C1COc2ccc(C(=O)COC(=O)CCCOc3ccccc3)cc2N1	x	-3	x	x	x	-3	2	-8
COc1ccc(N2CC(C(=O)Nc3cc(C(F)(F)F)ccc3N3CCCC3)CC2=O)c(OC)c1 (configuration not stated)	i	14	7	x	x	-5	-7	x
Cc1cccc(C(=O)c2cnc3ccccc3c2-c2ccccc2)c1	i	-4	18	10	5	-4	-7	73*
O=C(Nc1ccc(S(=O)(=O)NCCc2ccccc2)cc1)c1ccc(Br)o1	x	1	-9	3	2	6	-5	1
Cc1ccc(N2C(=O)CC(C)(C)CC2=O)cc1Cl	i	13	-8	-3	0	-1	1	-23
Cc1ccc(S(=O)(=O)NCC(c2ccco2)S(=O)(=O)c2ccccc2)cc1 (configuration not stated)	i	7	-11	x	x	0	-1	-7
CC(Oc1ccc(-c2ccccc2)c(F)c1)c1ccn(S(=O)(=O)c2ccc(Cl)cc2)n1 (configuration not stated)	i	-10	26	-6	-6	2	-7	-4
Cc1ccccc1C(=O)NC(=S)Nc1ccccc1[N+](=O)[O-]	i	-10	6	-5	-1	-1	-1	x
COc1ccc(NC(=O)CSc2nc3ccc(Nc4nc(N5CCOCC5)nc(N5CCOCC5)n4)cc3s2)cc1	i	-19	39	-1	-10	0	-8	20
CC#CC(=O)N1CCCC(C(=O)c2ccc(SC)cc2)C1 (configuration not stated)	i	11	-15	1	-1	5	-2	9
O=C(Nc1cccc(S(=O)(=O)N2CCOCC2)c1)c1cc2c(s1)CCC2	i	-18	-8	-4	3	1	-4	u
CCCc1nc2sc3ccccc3c(=O)c2c(=O)n1Cc1ccc(OC)cc1	i	-20	-5	11	-1	1	-14	25
CCCn1c(CN2CCN(C(=O)c3ccco3)CC2)nc2cc(S(=O)(=O)N(C)C)ccc21	x	-13	x	x	x	2	5	3
Cc1cc(C(=O)OCC(=O)Nc2cccnc2Cl)c2ccccc2n1	i	x	-11	0	-5	0	2	17
Cc1cc(C)c(S(=O)(=O)N(C)CC(=O)NCc2cccnc2)c(C)c1	i	-11	4	-4	6	2	3	-13
N#C/C=C/N1CCN(Cc2ccc3c(c2)OCO3)CC1	i	-14	-9	2	1	-3	-1	-16
Cc1ccc(CCNC(=O)C2CC(c3cccc(F)c3)=NO2)cc1 (configuration not stated)	i	10	-20	10	-3	-1	6	-15
Cc1ccc(S(=O)(=O)NC(=O)Nc2cc(C)on2)cc1	i	-19	-2	5	-6	-1	1	10
COc1ccc(-n2ccn3c(CCC(=O)N4CCN(c5cccc(C)c5C)CC4)nnc3c2=O)cc1	i	-19	-2	x	x	-1	-7	14
COc1cccc2sc(Nc3nc(-c4cc5ccccc5oc4=O)cs3)nc12	i	-9	50	-6	18	-7	-15	-193
O=c1[nH]c2ccccc2nc1/C=C(\O)C(F)F	i	4	-11	-6	79	-3	3	-115	eIF4H FP inh retest=-12;PABP FP inh retest=2
(more compounds)
SMILES	Rce1 inh	Yeast UUG start	CSC inhib	PABP FP inh	eIF4H FP inh	MT1-MMP act inh	MT1-MMP act inh RFP	HIV Env fusion	others
CSCCC(NC(=O)c1ccc(Cl)cc1Cl)C(=O)OCC(N)=O (configuration not stated)	i	x	-16	-6	-2	3	4	-5
CC(C)Cc1cc(C(=O)N2CCCC(CO)(Cc3ccc(F)cc3F)C2)n[nH]1 (configuration not stated)	i	2	-4	-10	-1	3	0	4
COc1ccccc1NC(=O)C(C)OC(=O)CC1CCCC1 (configuration not stated)	i	-23	x	-9	-9	2	4	-1
C/C(=N\NC1=NCCN1)c1ccc(Cl)cc1	i	x	-5	-5	-5	3	-1	8
CCCCSc1nnc(CNC(=O)C23CC4CC(CC(C4)C2)C3)n1Cc1ccccc1	i	x	42	-17	-6	-15	-17	29
CCOc1cccc(CNn2cnnc2)c1OCc1ccccc1Cl	i	-19	-8	4	-2	0	-3	x
O=[N+]([O-])c1cc(S(=O)(=O)N2CCCCCC2)ccc1Cl	x	x	x	-2	-2	-3	-5	-27
O=C(C1CC1)N1CCN=C1SCc1ccccc1Cl	i	-15	-1	6	-12	-1	2	9
Cc1cc(NC(=O)CC(C)C)c(=O)n(Cc2cccc(F)c2)c1	i	-6	17	-10	-9	-2	-4	3
O=[N+]([O-])c1ncn(Cc2ccccc2Cl)n1	i	x	6	6	8	0	3	16
O=C(O)CC(c1cccc(Cl)c1)n1cccc1 (configuration not stated)	i	-12	-10	7	1	-3	2	-15
O=C(N/N=C\c1coc2ccccc2c1=O)c1ccco1	i	-11	-15	-2	-1	-1	-4	-5
Cc1nc(C(=O)Nc2ccc(Cl)cc2)sc1C1(C)CC(c2cccc([N+](=O)[O-])c2)=NO1 (configuration not stated)	i	3	5	x	x	8	-13	55*
COc1cc2c(cc1OC)CN(C(=S)Nc1ccc(Cl)cc1)CC2	i	x	3	2	-12	5	-2	1
O=C(CSc1nc2ccccc2nc1SCC(=O)N1CCOCC1)N1CCOCC1	i	-5	-15	0	5	0	-1	x
Cc1cc(/C=N/NC(=O)CC#N)c(C)n1-c1ccc([N+](=O)[O-])cc1	i	x	x	-4	2	6	2	12
COc1cccc(N2CCN(C(=S)Nc3ccccc3OC)CC2)c1	i	-9	9	0	6	-1	1	2

Part of the list above in order of number of heavy atoms, largest number first.
SMILES	Rce1 inh	Yeast UUG start	CSC inhib	PABP FP inh	eIF4H FP inh	MT1-MMP act inh	MT1-MMP act inh RFP	HIV Env fusion	others
Cc1nc(C(=O)Nc2ccc(Cl)cc2)sc1C1(C)CC(c2cccc([N+](=O)[O-])c2)=NO1 (configuration not stated)	i	3	5	x	x	8	-13	55*
Cc1cc(/C=N/NC(=O)CC#N)c(C)n1-c1ccc([N+](=O)[O-])cc1	i	x	x	-4	2	6	2	12
O=[N+]([O-])c1cc(S(=O)(=O)N2CCCCCC2)ccc1Cl	x	x	x	-2	-2	-3	-5	-27
O=C(O)CC(c1cccc(Cl)c1)n1cccc1 (configuration not stated)	i	-12	-10	7	1	-3	2	-15
C/C(=N\NC1=NCCN1)c1ccc(Cl)cc1	i	x	-5	-5	-5	3	-1	8

Screens from PubChem BioAssay.
